# hNpr1 antagonist – antagonists of human natriuretic peptide receptor Npr1. P16066. Potency, µM (top dose mostly 46.3 µM), inactives show at the top dose activity change, negative = inhibition, actives largely listed as inhibitors. HEK293 hNpr1 GloSensor cGMP, ANP-stimulated luminescence. actives 1.6% (n = 76,000); active = well fitted inhibition curve with a large enough effect; inconclusive = small, poorly fitted or top-dose-only effect; inactive = no such curve, though single readings can be large or run the other way;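 further: nearly all actives have a fitted effect of over 60% in size; nearly all hits also lower the signal before the agonist is added; a reference antagonist and vehicle were the controls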
# Target sequence (P16066 whole entry, looked up): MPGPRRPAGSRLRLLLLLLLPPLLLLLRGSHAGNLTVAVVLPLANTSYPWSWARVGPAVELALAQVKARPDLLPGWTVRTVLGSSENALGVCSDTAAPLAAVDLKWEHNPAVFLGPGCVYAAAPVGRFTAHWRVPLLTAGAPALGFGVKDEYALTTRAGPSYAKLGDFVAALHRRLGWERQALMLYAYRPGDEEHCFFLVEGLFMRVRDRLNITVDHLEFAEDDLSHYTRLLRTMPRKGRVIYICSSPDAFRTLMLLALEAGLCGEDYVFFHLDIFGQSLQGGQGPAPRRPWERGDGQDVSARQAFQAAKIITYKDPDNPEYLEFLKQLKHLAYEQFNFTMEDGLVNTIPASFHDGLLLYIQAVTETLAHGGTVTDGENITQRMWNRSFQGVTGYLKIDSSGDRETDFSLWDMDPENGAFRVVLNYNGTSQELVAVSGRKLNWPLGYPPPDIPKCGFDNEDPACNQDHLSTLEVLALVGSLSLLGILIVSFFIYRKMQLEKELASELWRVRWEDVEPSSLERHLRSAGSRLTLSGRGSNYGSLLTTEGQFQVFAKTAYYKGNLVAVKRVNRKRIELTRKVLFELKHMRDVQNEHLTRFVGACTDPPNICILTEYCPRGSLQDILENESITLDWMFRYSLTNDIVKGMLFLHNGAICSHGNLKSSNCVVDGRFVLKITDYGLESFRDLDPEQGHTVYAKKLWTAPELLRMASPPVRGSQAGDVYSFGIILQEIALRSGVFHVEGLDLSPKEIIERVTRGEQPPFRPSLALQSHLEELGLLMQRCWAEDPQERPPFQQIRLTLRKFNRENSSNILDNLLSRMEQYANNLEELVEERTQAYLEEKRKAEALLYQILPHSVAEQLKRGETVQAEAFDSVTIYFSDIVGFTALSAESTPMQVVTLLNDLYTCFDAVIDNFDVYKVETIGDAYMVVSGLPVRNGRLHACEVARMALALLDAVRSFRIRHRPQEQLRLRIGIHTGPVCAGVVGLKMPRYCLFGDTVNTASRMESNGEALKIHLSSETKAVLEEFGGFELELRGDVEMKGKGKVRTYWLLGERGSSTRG
#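 Compound pre-incubated 30 min at room temperature on GloSensor-loaded HEK293 cells stably carrying hNpr1 and the pGS-40F cGMP biosensor. Stimulation uses hNppA at 0.1 nM final; luminescence is taken at baseline and 20 min post-agonist.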
# * = called active by the depositor. On the % scale 0 is the no-effect control and ±100 the full control effect; potency means the concentration at half of the fitted maximal effect. These rows are one share of the data; rates above refer to the full screens.
SMILES,hNpr1 antagonist
Cc1nc(-c2ccc(OC3CCN(C(=O)c4[nH]nc5c4COc4ccccc4-5)C3)cc2)no1 (stereo not given),-0.2%
CN1C(=O)CCc2cc(NC(=O)Cc3ccccc3Cl)ccc21,3.5%
CN(CC1(C)CCOCC1)C(=O)NCc1ccco1,-9.8%
O=c1n(CC2CC2)nc2n1CCN(S(=O)(=O)c1ccccc1C(F)(F)F)C2,-13.3%
CCCN(CC1CCOC1)C(=O)Nc1ccccc1F (stereo not given),-6.4%
CCc1ccccc1NC(=O)Cn1nc2n(c1=O)CCCC2,-5.2%
CCOc1ccc(C2Cn3nnc(-c4nc(-c5ccc(C)cc5)no4)c3CO2)cc1 (stereo not given),0.5%
Cc1noc(C)c1Cc1c(C(=O)NCCc2noc(C3CC3)n2)noc1C,1.1%
Cc1cnc(C2CC2)n1C1CCCN(C(=O)NC(C)C)C1 (stereo not given),6.5%
CC(=O)Nc1ccc(C(=O)NC2CCN(c3cc(-c4ccccc4)[nH]n3)C2)cc1 (stereo not given),-8.6%
CC(C)(C)NC(=O)Cc1cccn1-c1cccc(Cl)c1,-20.8%

# Arranged by SMILES length (descending): some entries from above
SMILES,hNpr1 antagonist
CC(=O)Nc1ccc(C(=O)NC2CCN(c3cc(-c4ccccc4)[nH]n3)C2)cc1 (stereo not given),-8.6%
CCOc1ccc(C2Cn3nnc(-c4nc(-c5ccc(C)cc5)no4)c3CO2)cc1 (stereo not given),0.5%
Cc1noc(C)c1Cc1c(C(=O)NCCc2noc(C3CC3)n2)noc1C,1.1%
Cc1cnc(C2CC2)n1C1CCCN(C(=O)NC(C)C)C1 (stereo not given),6.5%
CN(CC1(C)CCOCC1)C(=O)NCc1ccco1,-9.8%

# A run of entries of the results above, as a working copy:
SMILES,hNpr1 antagonist
CCc1ccccc1NC(=O)Cn1nc2n(c1=O)CCCC2,-5.2%
CCOc1ccc(C2Cn3nnc(-c4nc(-c5ccc(C)cc5)no4)c3CO2)cc1 (stereo not given),0.5%
